Bioassay records as filed in PubChem BioAssay.
KCNQ2 block = KCNQ2 channel blockers in CHO-K1 cells – cell-based, FluxOR thallium flux, B-score, primary screen (AID 2156). O88943. 20 min; hits give low values; only compounds with negative scores are shown here; some inactives read as strong as hits. B-score at 10 µM. actives 1.1% (n = 310,000);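 active = fluorescence ratio B-score at most minus 3 library SDs, with starting brightness B-score within 2 library SDs, cut at about -5.5 in these data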
Target sequence (O88943 whole entry, looked up): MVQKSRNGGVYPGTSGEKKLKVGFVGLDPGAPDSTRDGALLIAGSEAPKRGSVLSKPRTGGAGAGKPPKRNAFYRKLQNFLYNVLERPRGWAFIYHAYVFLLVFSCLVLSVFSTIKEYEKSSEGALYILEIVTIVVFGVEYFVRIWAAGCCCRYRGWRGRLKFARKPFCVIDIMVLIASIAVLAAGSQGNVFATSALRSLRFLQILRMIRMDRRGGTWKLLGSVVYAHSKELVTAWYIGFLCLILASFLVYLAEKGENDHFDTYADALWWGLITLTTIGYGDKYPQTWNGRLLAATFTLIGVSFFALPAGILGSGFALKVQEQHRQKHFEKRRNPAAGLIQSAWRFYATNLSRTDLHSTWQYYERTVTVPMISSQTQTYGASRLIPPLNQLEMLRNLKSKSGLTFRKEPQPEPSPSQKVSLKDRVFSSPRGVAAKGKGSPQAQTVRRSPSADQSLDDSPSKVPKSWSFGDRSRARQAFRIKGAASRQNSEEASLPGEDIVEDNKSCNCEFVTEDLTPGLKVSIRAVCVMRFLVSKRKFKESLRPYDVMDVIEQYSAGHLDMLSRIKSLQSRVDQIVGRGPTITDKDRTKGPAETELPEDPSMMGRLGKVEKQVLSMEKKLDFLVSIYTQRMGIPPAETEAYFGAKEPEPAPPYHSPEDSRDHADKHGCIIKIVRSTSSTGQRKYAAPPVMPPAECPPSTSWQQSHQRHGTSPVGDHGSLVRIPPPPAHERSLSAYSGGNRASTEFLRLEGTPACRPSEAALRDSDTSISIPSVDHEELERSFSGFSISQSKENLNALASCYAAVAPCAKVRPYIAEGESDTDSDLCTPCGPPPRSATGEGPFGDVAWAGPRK
KCNQ2 block baseline = also measured in KCNQ2 block; calls as there; B-score; measured here: initial fluorescence intensity artifact check;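 brightness before thallium and not channel activity; 0 = typical well and far values either way flag optical interference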
Numbers without * were called inactive; i = inactive.

SMILES	KCNQ2 block	KCNQ2 block baseline
CCn1c(=O)n(CC)c2cc(N3CCCC3)c(NC(=O)c3ccc(C)c([N+](=O)[O-])c3)cc21	i	0.48
Cc1ccc(C(=O)Nc2ccccc2C(=O)NCc2ccco2)cc1S(=O)(=O)N1CCCCC1	i	-0.27
COc1cc(/C=C/C(=O)c2ccc(F)cc2)cc(OC)c1OC	i	1.1
CCOC(=O)/C(=N\Nc1ccccc1)P(=O)(c1ccccc1)c1ccccc1	i	-3.4
O=C(CSc1n[nH]c(-c2ccco2)n1)Nc1ccc(Br)cc1	i	-0.94
CC(C)CC1C2C(=O)N(c3ccccc3)C(=O)C2ON1c1ccccc1 (stereo not drawn)	i	2
COc1ccc(NC(=S)NC(=O)c2cccnc2)cc1	i	-0.25
O=C(O)Cc1ccc(NS(=O)(=O)c2c(Cl)cccc2Cl)cc1	i	-1
Cc1ccc(C(=O)Oc2cccc(NC(=O)c3cccs3)c2)cc1S(=O)(=O)N1CCOCC1	i	0.4
CCCC(C(=O)Nc1cccc(S(=O)(=O)N2CCCC2)c1)c1ccccc1 (stereo not drawn)	i	0.15
Cc1cccc(COc2ccc(/C=N/NC(=O)c3nnn(-c4nonc4N)c3CN3CCCCC3)cc2)c1	i	2
CCOc1ccc2nc(NC(=O)C(CCSC)NS(=O)(=O)c3cccs3)sc2c1 (stereo not drawn)	i	1.9
N#CCc1cc2ccc3cccc4ccc(c1)c2c34	i	0.28
O=C1CCN(S(=O)(=O)c2ccc(Cl)cc2)N1	i	0.21
O=C(NN=C1CCCCCCCCCCC1)c1cccc(S(=O)(=O)N2CCOCC2)c1	i	1.9
O=C(Nc1ccc(Br)cc1Br)c1cccc2c1C(=O)N(C1CCCCC1)C2	i	0.09
O=C(c1ccccc1)n1nnc2ccccc21	i	1.2
CC(C)CCn1c(CN2CCN(Cc3ccccc3)CC2)nc2c1c(=O)n(C)c(=O)n2C	i	3
CCS(=O)(=O)N1Cc2ccccc2CC1C(=O)N(C)Cc1ccc(OC)c(F)c1 (stereo not drawn)	i	0.08
O=C(NC12CC3CC(CC(C3)C1)C2)c1ccc([N+](=O)[O-])cc1	i	-1.5
COc1ccc(C2CC(c3cccs3)=NN2C(=O)CSc2nc(=O)n3cc(C)ccc3n2)cc1 (stereo not drawn)	i	-1.5
Cc1ccc2nc(SCC(=O)N3CCCCCC3)nc(=O)n2c1	i	-2.2
CCOCCCN(C(=O)Cn1nnc2ccccc21)C(C(=O)NCc1ccco1)c1ccncc1 (stereo not drawn)	i	0.2
Cn1c(=O)c2c(Nc3ccc(F)cc3)cc(=O)n(-c3ccccc3)c2n(C)c1=O	i	-0.02
CCN1C(=O)N/C(=C/c2ccc(C)o2)C1=O	i	-0.44

Entries of single compounds as entered above. Order of values: KCNQ2 block	KCNQ2 block baseline
Profile of CC(C)CC1C2C(=O)N(c3ccccc3)C(=O)C2ON1c1ccccc1 (stereo not drawn) = i	2
Profile of O=C(NN=C1CCCCCCCCCCC1)c1cccc(S(=O)(=O)N2CCOCC2)c1 = i	1.9

(listing goes on)
SMILES	KCNQ2 block	KCNQ2 block baseline
COc1ccc(S(=O)(=O)NC(C)(C)C)cc1-c1nnc2c3ccccc3c(C)nn12	i	1.1
O=[N+]([O-])c1ccc(N2CCN(CCO)CC2)c2ncccc12	i	-1.8
CN(C)c1ccc(C(C[N+](=O)[O-])c2c(N)n(C)c(=O)n(C)c2=O)c(F)c1C#N (stereo not drawn)	i	1.6
CC(C)CN(CCNC(=O)CN1C(=O)COc2ccc(S(=O)(=O)N3CCOCC3)cc21)CC(C)C	i	-1.7
Cc1nnc2sc(-c3ccc(NC(=O)CSc4ccc(Cl)cc4)cc3)nn12	i	-0.12
Cc1cccc2c1-c1sc(C(=O)Nc3ccccc3N3CCN(C)CC3)cc1CO2	i	-0.27
C/C(Cl)=C/Cn1c(NCCCn2ccnc2)nc2c1c(=O)[nH]c(=O)n2C	i	3.9
CCN1C(=O)CC2(C[N+]3(C)CCC2CC3)C1=O (stereo not drawn)	i	-0.3
CC(C)C(NS(=O)(=O)c1cccc(C(F)(F)F)c1)C(=O)O (stereo not drawn)	i	0.85
O=C(Nc1ccc(S(=O)(=O)Nc2nccs2)cc1)c1nn(-c2ccccc2)ccc1=O	i	4
CC1CC(C)CN(c2ncc3c(n2)CC(c2ccccc2Cl)CC3=O)C1 (stereo not drawn)	i	-0.1
COc1cc(SC)ccc1C(=O)NC1CCCc2ccccc21 (stereo not drawn)	i	0.05
CCCCc1nc(SCC(=O)Nc2ccc(S(N)(=O)=O)cc2)n[nH]1	i	-0.42
O=C(N/N=C/c1cccn1-c1ccc([N+](=O)[O-])cc1)C(O)c1ccccc1 (stereo not drawn)	i	-0.01
CCOC(=O)N1CCC(NC(=O)c2ccc3c(c2)N(C)C(=O)/C(=C/c2cccc(OC)c2)S3)CC1	i	-0.03
COc1cccc(CSc2nnnn2-c2ccc(O)cc2)c1	i	-0.41
COc1ccc(CCNC(=O)CCS(=O)(=O)c2ccc(C)cc2)cc1OC	i	0.96
CC1CCN(c2cc(N3CCOCC3)c([N+](=O)[O-])cc2F)CC1	i	0.19
O=C(COc1ccccc1[N+](=O)[O-])Nc1ccccc1N1CCCC1	i	0.99
COCCn1c(=O)[nH]c(=O)c2c1nc(-c1ccc(-c3ccc(Cl)cc3[N+](=O)[O-])o1)n2Cc1ccccc1	i	-1.2
CC(N=Cc1cccc(O)c1O)c1ccccc1 (stereo not drawn)	i	-1.2
CCCCC(CCC(=O)Nc1nccs1)C(=O)O (stereo not drawn)	i	0.07
O=c1cc(O)nc(-c2ccccc2)s1	i	-1.4
O=C(COC(=O)c1ncc(Cl)c(Cl)c1Cl)NNC(=O)c1ccccc1	i	-0.65
CCOC(=O)CC1=NC(=O)CS1	i	0.99
Other records.
SMILES	KCNQ2 block	KCNQ2 block baseline
CCOc1ccc2ccccc2c1/C=N/NC(=O)CNC(=O)c1ccccc1F	i	0.47
COc1cc(/C=N/Nc2nc(N3CCCC3)nc(N3CCCC3)n2)ccc1O	i	0.12
Cc1ccc(C(C)C)c(OCCNC(=S)Nc2cccc3ccccc23)c1	-6.7*	1.3*
CC(C)(O)c1ccc2c(c1)CCC1C(C)(C(=O)O)CCCC21C (stereo not drawn)	i	-0.41
COC1CCN(Cc2c(C(=O)N3CCc4ccccc4C3)nc3ccc(Cl)cn23)CC1	i	-1.1
Cc1ccc(C2c3[nH]c4ccccc4c3C[C@H]3C(=O)N(c4ccccc4C(=O)NCCCN4CCOCC4)C(=O)N23)cc1 (stereo partly drawn)	i	-1.2
COc1ccc(-c2noc(CCC(=O)NCCCN3CCC(Cc4ccccc4)CC3)n2)cc1	i	0.8
CN(Cc1cccs1)C(=O)Cc1csc(-c2ccccc2)n1	i	-0.52
Cc1ccc(N(C(=O)c2csnn2)C(C(=O)NCc2ccccc2)c2cccnc2)cc1 (stereo not drawn)	i	1.2
COc1ccc(-c2[nH]ncc2CN(C)CCN2CCOCC2)cc1F	i	0.35
COc1ccc(CN2CCC(n3nccc3NC(=O)C3CC3)CC2)cc1O	i	-1.9
C=CCN(c1ccc(C(=O)Nc2cccc([N+](=O)[O-])c2)cc1)S(C)(=O)=O	i	-0.17
CCn1c(Cc2ccccc2)nnc1SCC(=O)Nc1ccccc1O	i	-0.01
CCCCc1cc(=O)oc2cc(C)cc(OCC(=O)N3C[C@H]4C[C@@H](C3)c3cccc(=O)n3C4)c12	i	-1.1
CCc1nc2c(c(SC)nn2-c2ccccc2)c(N)c1C(=O)OC	i	1.5
COc1ccc(N2CCN(CCOc3ccc4c(C)cc(=O)oc4c3)CC2)cc1	i	0.03
CC(C)CNC(=S)NNC(=O)c1csc2ccccc12	i	-0.69
CCN(CC)S(=O)(=O)c1ccc(N2CCOCC2)c(NS(=O)(=O)c2cc(C(C)(C)C)ccc2C)c1	i	-1.9
CC(NC(=O)c1ccc(=O)oc1)c1ccccc1 (stereo not drawn)	i	2.9
CCOC(=O)c1sc(=S)n(-c2ccc(C)cc2)c1N	i	0.25
COC(C(=O)Nc1ccnn1C1CCN(Cc2cnn(C)c2)CC1)c1ccccc1 (stereo not drawn)	i	0.27
CN(CCc1ccccn1)C(=O)CC1C(=O)NCCN1Cc1ccc(-c2ccccc2)cc1 (stereo not drawn)	i	0.08
CN(C)c1ccc(/C=N/NC(=O)C(O)(c2ccccc2)c2ccccc2)o1	i	0.34
Cc1cccc(-n2c(CNC(=O)c3cccc([N+](=O)[O-])c3C)n[nH]c2=S)c1	i	0.64
Cc1cccc(-c2cccc(NC(=O)C3CCCN(C(=O)c4csc(C)n4)C3)c2)c1 (stereo not drawn)	i	-1.5
(cont.)
SMILES	KCNQ2 block	KCNQ2 block baseline
CC(C)CCNC(=O)NC(=O)COC(=O)C1CCN(S(=O)(=O)c2ccccc2F)CC1	i	0.71
CNC(=O)COC(=O)c1ccc(Cl)c(S(=O)(=O)N2CCCC2)c1	i	0.15
CCOC(=O)C1CC2CC(C1)CN(C(=O)C1CCCCC1)C2 (stereo not drawn)	i	0.22
CCOC(=O)C(Cc1ccccc1)c1ccnc2nc(N)nn12 (stereo not drawn)	i	1.5
CCC(C)(C(=O)Nc1ccccc1C)N(C(=O)CNC(C)=O)c1ccccc1C (stereo not drawn)	i	-1.5
Cc1nn(C(C)(C)C)c(OC(=O)CC(C)C)c1S(=O)(=O)c1ccccc1	i	-1.5
CCOC(=O)N/N=C/c1c(C)nn(-c2cccc(C(F)(F)F)c2)c1Cl	i	0.09
Cc1cc(Cc2ccc([N+](=O)[O-])cc2)c(C)cn1	i	1
CC1(c2ccc3noc(-c4ccccc4)c3c2)OCCO1	i	-1.8
Cc1cc(C)n(Cc2ccc(Cl)c(Cl)c2)c(=O)c1S(=O)(=O)c1ccccc1	i	1.9
Cc1onc(-c2ccccc2Cl)c1C(=O)Nc1sc2c(c1C#N)CCC2	i	0.03
CO/N=C(/CNC(=O)c1ccc(Cl)cc1Cl)c1ccc(Cl)cc1	i	0.05
COc1cc(C2NC(=O)NC(c3ccccc3)=C2C(C)=O)c(Br)cc1OCC(N)=O (stereo not drawn)	i	1.6
S=c1[nH]ncn1/N=C/c1ccc(Br)cc1	i	0.1
O=C(c1ccc2nc(N3CCOCC3)sc2c1)N1CCC(Cc2ccccc2)CC1	i	2.2
COc1cc(/C=N/NC(=S)NCCN2CCOCC2)ccc1O	i	0.76
CCCCC(=Nc1ccccc1OC)C1=C(O)CC(c2ccccc2)CC1=O (stereo not drawn)	-6.5*	-0.23*
c1ccc(CSc2nnc(-c3ccco3)n2Cc2ccccc2)cc1	i	2.1
N#Cc1ccccc1S(=O)(=O)N1CCN(S(=O)(=O)c2ccc(Br)c(C(=O)O)c2)CC1	i	-0.01
CC(C)c1ccccc1NC(=O)COC(=O)c1cc([N+](=O)[O-])ccc1N1CCOCC1	i	-0.79
O=C(N/N=C\C=C\c1ccc2c(c1)OCO2)c1cccnc1	i	-1.1
COc1cccc([C@@H]2Oc3ccc(OC)cc3C(=O)[C@H]2OC(=O)NCc2ccc3c(c2)OCO3)c1	i	3
Cc1ccc(S(=O)(=O)Nc2ccc(Cl)cc2)cc1NC(=O)c1cc2c(s1)CCCC2	i	0.01
CC(=O)c1ccc(N=Nc2ccc(N(C)C)cc2)cc1	i	0.21
O=C(NC(Cc1ccccc1)C(=O)N1CCc2ccccc2C1)c1ccccc1 (stereo not drawn)	-6.3*	-1.1*
Other results.
SMILES	KCNQ2 block	KCNQ2 block baseline
COc1ccc(/C=C2\SC(=O)N(CCC(=O)N3CCN(C)CC3)C2=O)cc1	i	-0.29
CCOc1ccc(C(=O)Nc2ccc(CN3CCOCC3)cc2)cc1Br	i	-0.33
Cc1ccc(C(=O)NNC(=O)C2CC2)cc1Br	i	-1.1
Cc1cccc(OS(=O)(=O)NC(=O)OCC2CCCN3CCCCC23)c1 (stereo not drawn)	i	1.4
CCOC(=O)C(C)Oc1cccc2c(=O)n(CC(=O)NCc3ccccc3)ccc12 (stereo not drawn)	i	2
COc1ccc(-c2nnc(SCC(=O)N3CCOCC3)n2C)cc1OC	i	4.7
Cn1c(C(=O)N2CCN(c3ncccn3)CC2)cc2c(=O)n(C)c3ccccc3c21	i	-0.82
O=C1c2ccccc2S(=O)(=O)c2cc(N3CCC4(CC3)OCCO4)ccc21	i	-0.9
O=C(NCC(O)c1ccccc1)c1ccc(Cl)c(S(=O)(=O)N2CCCC2)c1 (stereo not drawn)	i	-0.58

Structural class: those above with a Cl atom (15)
SMILES	KCNQ2 block	KCNQ2 block baseline
O=C(O)Cc1ccc(NS(=O)(=O)c2c(Cl)cccc2Cl)cc1	i	-1
O=C1CCN(S(=O)(=O)c2ccc(Cl)cc2)N1	i	0.21
Cc1nnc2sc(-c3ccc(NC(=O)CSc4ccc(Cl)cc4)cc3)nn12	i	-0.12
C/C(Cl)=C/Cn1c(NCCCn2ccnc2)nc2c1c(=O)[nH]c(=O)n2C	i	3.9
CC1CC(C)CN(c2ncc3c(n2)CC(c2ccccc2Cl)CC3=O)C1 (stereo not drawn)	i	-0.1
COCCn1c(=O)[nH]c(=O)c2c1nc(-c1ccc(-c3ccc(Cl)cc3[N+](=O)[O-])o1)n2Cc1ccccc1	i	-1.2
O=C(COC(=O)c1ncc(Cl)c(Cl)c1Cl)NNC(=O)c1ccccc1	i	-0.65
COC1CCN(Cc2c(C(=O)N3CCc4ccccc4C3)nc3ccc(Cl)cn23)CC1	i	-1.1
CNC(=O)COC(=O)c1ccc(Cl)c(S(=O)(=O)N2CCCC2)c1	i	0.15
CCOC(=O)N/N=C/c1c(C)nn(-c2cccc(C(F)(F)F)c2)c1Cl	i	0.09
Cc1cc(C)n(Cc2ccc(Cl)c(Cl)c2)c(=O)c1S(=O)(=O)c1ccccc1	i	1.9
Cc1onc(-c2ccccc2Cl)c1C(=O)Nc1sc2c(c1C#N)CCC2	i	0.03
CO/N=C(/CNC(=O)c1ccc(Cl)cc1Cl)c1ccc(Cl)cc1	i	0.05
Cc1ccc(S(=O)(=O)Nc2ccc(Cl)cc2)cc1NC(=O)c1cc2c(s1)CCCC2	i	0.01
O=C(NCC(O)c1ccccc1)c1ccc(Cl)c(S(=O)(=O)N2CCCC2)c1 (stereo not drawn)	i	-0.58

An excerpt; rates above refer to the full screens.
